Screening data deposited in PubChem BioAssay by National Center for Advancing Translational Sciences (NCATS).
2A StopGo – High Throughput Screening for Foot and Mouth Disease Virus Antivirals | human cells with a luciferase reporter of 2A StopGo recoding; control for the full effect not named in the record | Potency, µM (top dose mostly 57.9 µM), for the others: at the highest dose signal change, negative = less light | 1.2% of 410,000 active; active = well fitted falling curve with a large enough effect; inconclusive = small, poorly fitted or top-dose-only effect; inactive = no such curve, though single readings can be large or run the other way; tested in HEK293T cells; further: on the % scale 0 is the no-effect control and ±100 the full control effect; nearly all actives have a fitted effect of over 45% in size; luciferase light after 4 h
Cruzain inh noDet – qHTS Assay for Promiscuous and Specific Inhibitors of Cruzain (without detergent) | 2.3% of 200,000 active | Cruzipain (Trypanosoma cruzi), P25779 | Potency, µM, for inactives: max response, negative = inhibition, hits mostly inhibitors | purified cruzain, Z-FR-AMC fluorescence, no detergent;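 further: plate controls were enzyme without inhibitor for no effect and buffer without enzyme for full effect; nearly all actives have a fitted effect of over 40% in size; top concentration of the series not given in the record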
Target sequence (P25779 123-467 limits assumed): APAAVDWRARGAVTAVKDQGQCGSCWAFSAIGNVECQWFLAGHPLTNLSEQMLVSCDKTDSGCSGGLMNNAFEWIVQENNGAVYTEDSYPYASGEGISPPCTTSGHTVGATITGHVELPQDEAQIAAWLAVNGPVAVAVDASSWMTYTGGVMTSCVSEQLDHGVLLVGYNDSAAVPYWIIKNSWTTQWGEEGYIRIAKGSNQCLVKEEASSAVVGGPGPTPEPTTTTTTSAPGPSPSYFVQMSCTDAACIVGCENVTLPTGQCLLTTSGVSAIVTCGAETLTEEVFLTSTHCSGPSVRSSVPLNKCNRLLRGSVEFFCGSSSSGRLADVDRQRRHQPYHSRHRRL
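Purified cruzain at 1.5 nM, pre-incubated 15 min with compound at room temperature in 100 mM sodium acetate pH 5.5, 5 mM DTT, 0.00005% Triton X-100. Reaction started with 2 uM Z-FR-AMC; AMC fluorescence increase over 60 s gives rate.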
SARS PLP yeast – qHTS of Yeast-based Assay for SARS-CoV PLP | S. cerevisiae expressing SARS-CoV PLpro, growth rescue; control for the full effect not named in the record | AID 485353, 2010 | 0.19% of 330,000 active | Potency, µM (highest dose often 32.9 µM), for the others: top-dose activity, positive = growth rescue; active means well fitted rising curve with a large enough effect; inconclusive means small, poorly fitted or top-dose-only effect; inactive means no such curve, though single readings can be large or run the other way; further: 0% is about no effect; nearly all actives have a fitted effect of over 55% in size; growth read by luminescence after 48 h
Cruzain inh Det – qHTS Assay for Promiscuous and Specific Inhibitors of Cruzain (with detergent); purified cruzain, Z-FR-AMC fluorescence, 0.01% Triton; Potency, µM, without a hit: max response, negative = inhibition, usual class: inhibitors; 0.43% of 200,000 active;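 further: plate controls were neutral wells for no effect and buffer without enzyme for full effect; nearly all actives have a fitted effect of over 40% in size; top concentration of the series not given in the record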
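Detergent-containing arm of a paired screen for aggregation-based inhibition: 0.01% Triton X-100 present. Cruzain at 1.5 nM cleaved 2 uM Z-FR-AMC at pH 5.5 with 5 mM DTT; AMC fluorescence gain over 60 s measured activity.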
NS1 function inh – qHTS Assay for Inhibitors of Influenza NS1 Protein Function | 0.4% of 270,000 active | Potency, µM (top dose mostly 46.1 µM), without a hit: at the highest dose activity, positive = more growth | S. cerevisiae slowed by influenza A NS1, growth recovery by OD600; active means well fitted rising curve with a large enough effect; inconclusive means small, poorly fitted or top-dose-only effect; inactive means no such curve, though single readings can be large or run the other way; further: nearly all actives have a fitted effect of over 50% in size
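Read-out: OD600 growth recovery of NS1-expressing budding yeast. Cells grown overnight at 30C in -URA glucose medium, washed, resuspended and diluted 1:100 in 2% galactose assay medium, pH 6.0. Same strain lacking NS1 served as positive control.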
RE007 growth inh – qHTS Assay for Inhibitors of the HIV-1 protein Vpr. S. pombe RE007 Vpr strain, BacTiter-Glo ATP luminescence, 24 h; control for the full effect not named in the record. Potency, µM (titrated, usually from 92.2 µM), for the others: at the top dose activity change, negative = less growth. 0.21% of 360,000 active; active = well fitted falling curve with a large enough effect; inconclusive = small, poorly fitted or top-dose-only effect; inactive = no such curve, though single readings can be large or run the other way;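 further: on the % scale 0 is the no-effect control and ±100 the full control effect; nearly all actives have a fitted effect of over 50% in size; the assay follows cell death caused by Vpr and the record does not say whether a fall means rescue or toxicity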
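Fission yeast RE007 carrying one integrated HIV-1 vpr copy, seeded at OD 0.01 in PMG+AL medium with 23 nL pinned compound. Grown 24 h at 30 degrees; viability read by BacTiter-Glo luminescence after 5 min.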
Marburg entry inh – qHTS for inhibitors of binding or entry into cells for Marburg Virus. Potency, µM (highest dose often 37.8 µM), for the others: at the top dose activity change, negative = inhibition, hits mostly inhibitors. 1.8% of 300,000 active. Marburg virus pseudotyped entry inhibition, cell reporter; control for the full effect not named in the record; about a third of the inactives were read at about 46 µM; active = well fitted inhibition curve with a large enough effect; inconclusive = small, poorly fitted or top-dose-only effect, or effect the other way; inactive = flat fitted curve, though single readings scatter; tested in HEK293 cells; about a fifth of its hits are not listed in these tables; further: on the % scale 0 is the no-effect control and ±100 the full control effect; luciferase read-out
LASV entry inh – qHTS for Inhibitors of binding or entry into cells for Lassa Virus | Lassa virus pseudotype entry inhibition, cell reporter; control for the full effect not named in the record | Potency, µM (top dose mostly 37.9 µM), for inactives: at the top dose activity change, negative = inhibition, most hits filed as inhibitors | 1.2% of 300,000 active | AID 540256, 2011; active means well fitted inhibition curve with a large enough effect; inconclusive means small, poorly fitted or top-dose-only effect, or effect the other way; inactive means flat fitted curve, though single readings scatter; tested in HEK293 cells; further: on the % scale 0 is the no-effect control and ±100 the full control effect; nearly all actives have a fitted effect of over 50% in size; luciferase read-out
* marks the source's active call; other numbers are inactive results; ? = inconclusive; / = not tested or not shown; & = joins results of further samples; [ ] = dose if it differs, or a comment. Unless noted, the call rests on the fitted dose curve; in most records, active means well fitted curve in the direction sought with a large enough effect; inconclusive means small, poorly fitted or top-dose-only effect, or another doubt; inactive means no such curve, though single readings can be large; an effect the other way counts as inactive or inconclusive. Potency means the concentration at half of the fitted maximal effect.

SMILES | 2A StopGo | Cruzain inh noDet | SARS PLP yeast | Cruzain inh Det | NS1 function inh | RE007 growth inh | Marburg entry inh | LASV entry inh
O=C1c2ccccc2C(Nc2ccc(F)c(Cl)c2)N1Cc1ccco1 (centres undefined) | -25% | ? | -27% | ? | -100% | -11% | ? | ?
CC1CCN(C(=O)CN2C(=O)NC(C)(c3ccc4ccccc4c3)C2=O)CC1 (centres undefined) | -22% | / | 1% | / | / | -3% | -9% | -4%
CCOC(=O)c1cc(-c2ccc(F)cc2)n(CCC(=O)NCCc2ccc(C)cc2)c1C | -5% | ? | / | -8.5% | / | / | / | 4%[46.1 µM]
COc1cc2nc(SCc3ccc(Cl)cc3)n3nc(CCn4nc(C)cc4C)nc3c2cc1OC | 7% | -8% | / | 0.3% | / | / | 10%[46.1 µM] | ?
Cc1ccn2c(CN3CCOCC3)c(-c3ccccc3)nc2c1 | 33%[activator] | -6% | -2% | -5.6% | 4% | -8% | ? | 10%
CCC1=C(OC(=O)N(CC)CC)N2C(=O)OC(=NCC(=O)OC)[C@]2(C)[C@H]2C1=CC[C@H]1C(=O)N(C)C(=O)[C@H]12 | -16% | ? | 1% | 0.4% | 0% | 0% | / | /
Cc1ccccc1-c1nc(CS(=O)CC(=O)NCCN2CCOCC2)c(C)o1 (centres undefined) | -21% | 6% | 4% | 0.8% | ? | 6% | / | /
Cc1nc2c(OCc3ccccc3)cccn2c1CC#N | 7% | 1%&-2% | / | -4.5%&-3.8% | -9% | / | ? | ?
O=[N+]([O-])c1ccc(Sc2n[nH]c(-c3ccco3)n2)nc1 | 14% | / | -1% | / | -3% | 4% | ? | ?
CCOc1ccc(-c2c[n+]3c(n2-c2ccccc2)CCCCC3)cc1 | ? | 2% | 1% | 0.9% | 11% | 17% | ? | ?
Cc1nn(-c2ccccc2)c(N)c1Sc1ccccc1[N+](=O)[O-] | ? | -4% | 29% | -11% | -1% | -12% | ? | 6.3µM*
CN(C)c1cccc(C(=O)NCc2ccccc2)c1 | 51%[activator] | / | -2% | / | / | 4% | ? | 23%
COc1ccc(S(=O)(=O)N2CCOC2CNC(=O)C(=O)NCC(C)C)cc1 (centres undefined) | 5% | / | 0% | / | 2% | 8% | 6% | -14%
O=S(=O)(Nc1ccc2cn[nH]c2c1)c1ccccc1 | 28% | / | -1% | / | / | 1% | 2%[46.1 µM] | -1%[46.1 µM]
c1csc(-c2cn3ccc4ccccc4c3n2)c1 | 1% | / | -1% | / | 2% | -30% | ? | ?
CC(=O)Nc1sc(N/N=C\c2ccccc2F)nc1-c1cccs1 | 14% | -4% | 2% | -9.7% | -7% | -18% | ? | ?
O=C(O)Cc1nc(-c2cccnc2)sc1-c1ccc(Br)cc1 | 2% | / | -1% | / | 2% | 5% | 1%[46.1 µM] | 12%
O=C(CCc1ccccc1O)N/N=C/c1ccc(Sc2cccc3cccnc23)o1 | -27% | 9% | 5% | -1.0% | 3% | -6% | ? | -13%
O=C(COC(=O)Cc1c[nH]c2ccccc12)Nc1cccc2ccccc12 | -17% | 7% | -11% | -7.8% | -11% | 2% | -2% | 14%
CCn1c2ccccc2c2cc(NC(=O)COC(=O)Cc3cn4ccsc4n3)ccc21 | -12% | -3% | 3% | -0.9% | -13% | 2% | -8%&-8% | -1%
CN(C)C1(CNC(=O)c2cc(S(=O)(=O)N3CCOCC3)c(Cl)cc2Cl)CCCCC1 | -16% | / | -3% | / | / | 2% | -8% | -1%
CC1CCCN(C(=O)C2(NC(=O)Nc3cccc(F)c3)CCCCC2)C1 (centres undefined) | 16% | / | 10% | / | / | 0% | -15% | -1%
O=C1CC(N2CCOCC2)C(=O)N1c1ccc2c(c1)OCO2 (centres undefined) | -13% | -17% | -28% | 2.8% | -22% | -2% | 13% | -9%
CSc1ccccc1C(=O)Nc1ccc(C)cc1C | 7% | / | -1% | / | -7% | 6% | -4%[46.1 µM] | 11%
CC(C)C(=O)Nc1ccc2oc(=O)ccc2c1 | -1% | / | 0% | / | 1% | 13% | 2% | 20%
CCCN(CCC)CCNC(=O)Cn1ncc2c([nH]c3ccc(C)cc32)c1=O | -6% | -1% | / | 0.1% | / | / | / | 18%[46.1 µM]
COc1ccc(N2CCN(C(=O)CSc3nnc(-c4cccnc4)n3-c3ccc(F)cc3)CC2)cc1 | / | ? | 3% | -1.1% | -20% | 13% | -2% | -19%
Cc1cc(C)n(C(C)CNS(=O)(=O)c2ccc(C)c(C)c2)n1 (centres undefined) | 25% | / | 2% | / | 6% | -14% | -1%[46.1 µM] | -30%[46.1 µM]
CC(Sc1nc2sc3c(c2c(=O)n1-c1ccccc1)CCCC3)C(=O)O (centres undefined) | -11% | / | 0% | / | 10% | 6% | -1% | /
N#Cc1cccc(C(=O)OCC(=O)c2ccc3c(c2)NC(=O)CO3)c1 | -23% | / | -3% | / | / | -2% | -5% | 13%
Cc1ccc(CN=C(Nc2ccccc2)NC2CCCCC2)cc1 | -7% | / | -1% | / | -1% | 7% | ? | -1%
O=C(c1ccco1)N1CCN(C(=S)Nc2ccc(Br)cc2Cl)CC1 | 13% | / | 0% | / | -20% | -2% | -21% | ?
CN1CCN(CCCNC(=O)c2ccc3c(c2)N(Cc2ccc(F)cc2)CCS3)CC1 | -8% | / | 8% | / | 2.8µM* | -5% | / | /
O=C1CN(c2nc(-c3cccnc3)nc3sc4c(c23)CCCC4)CCN1 | 11% | / | -2% | / | / | -15% | ? | ?
O=C(CSc1cc(Cl)ccc1Cl)NC1CCCc2ccccc21 (centres undefined) | -2% | ? | 8% | 0.7% | -5% | 3% | 0% | -1%
COc1cccc(-c2nc(SCC(=O)NC3CCCC3)c(-c3ccc(C)cc3)[nH]2)c1 | -10% | 14% | / | 6.6% | / | / | ? | 7%[46.1 µM]
O=C(NC1CCCc2c1cnn2-c1ccc(F)cc1F)c1csnn1 (centres undefined) | -16% | / | 0% | / | -14% | 6% | -12% | -4%
Cc1ccc(C)c(N2CCN(C(=O)CCn3c(=S)[nH]c4cc5c(cc4c3=O)OCO5)CC2)c1 | -15% | -6% | 6% | 2.2% | 21% | -9%[3.69 µM] | -42% | -29%
NC(CSCc1ccccc1Cl)C(=O)O (centres undefined) | -6% | / | -1% | / | / | 13% | ? | -29%
O=C(Cc1nc2ccccc2[nH]c1=O)c1ccc(Cl)cc1 | 53%[activator] | / | -2% | / | -9% | -12% | / | /
CCCC1=Nc2cc(C(=O)NC3CCCC3)ccc2Sc2ccc(C)cc21 | -15% | ? | / | -3.9% | / | / | ? | ?
N#CC1=C2Sc3ccccc3N2CCCC1=O | 33%[activator] | 19% | 6% | -1.3% | -12% | 8% | 12% | ?
CCOC(=O)c1noc2ncnc(N3CCC(C)CC3)c12 | 0% | -4% | / | -3.7% | / | / | / | 0%[46.1 µM]
Cc1ccc(NC(=O)c2cc3cc(OC(F)(F)F)ccc3[nH]2)cc1 | -10% | / | -1% | / | 3% | -9% | / | /
CCOc1ccc(OCC)c(S(=O)(=O)N2CCOCC2)c1 | 6% | / | 1% | / | 0% | 3% | 20%[46.1 µM] | 1%
CCCn1c(-c2ccc[nH]c2=O)nc2ccccc21 | -9% | / | -1% | / | 3% | -13% | 8%[46.1 µM] | 18%[46.1 µM]
Cc1ccccc1NC(=O)CSc1nc2cc3c(cc2cc1C)CCC3 | 11% | 7% | 5% | -5.3% | 3% | -4% | ? | -19%
Cc1noc(/C=C/c2ccco2)c1S(=O)(=O)N1CCC(C(=O)N2CCc3ccccc32)CC1 | 0% | 16µM* | -2% | 2.1% | 25% | -10% | / | /
O=C(c1ccc([N+](=O)[O-])cc1)N1c2ncnn2C2(CCCCC2)[C@@H]2CCCC[C@@H]21 | ? | -6% | / | 0.5% | / | / | 8%[46.1 µM] | 26%[46.1 µM]
Cc1ccc(SCCC(=O)N2CCOCC2)cc1 | / | -3% | 2% | 3.7% | 13% | -2% | ? | 6%
COc1ccccc1NC(=O)c1nnn(Cc2ccccc2)c1NC(C)=O | 11% | -19% | -4% | -0.3% | 10% | 6% | -35% | 4%
COc1ccccc1N1CCN(C2CCN(C(=O)COc3cccc(C)c3)CC2)CC1 | ? | -5% | -18% | 2.2% | -4% | -15% | -2% | -18%
COCCn1c(N2CCCC2)nc2c1c(=O)[nH]c(=O)n2C | -21% | / | -3% | / | 4% | 5% | 4% | -37%
CCOc1ccc2ccccc2c1/C=N/NC(=O)c1ccncc1 | 5% | / | -5% | / | -51% | -2% | / | /
CC1N=C(c2ccccc2)c2cc(Br)ccc2NC1=O (centres undefined) | -17% | / | 0% | / | -1% | -2% | -2%[46.1 µM] | 13%[46.1 µM]
N/C(=N\N=C\c1ccnc2ccccc12)SC1CC(=O)N(c2ccc(Br)cc2)C1=O (centres undefined) | -10% | 10µM* | 5% | -20% | 17% | 4% | 1% | ?
Cc1cccc(NC(=O)COc2coc(CN3CCN(c4ccccc4)CC3)cc2=O)c1 | -28% | / | 3% | / | / | 2% | -15% | -3%
N#Cc1cc(C#N)c(N2CCN(c3cccc(Cl)n3)CC2)nc1N | 15% | ? | ? | -7.9% | 6% | 5% | ? | 17%
COc1ccc(C2=NN(CN3C(=O)C(=O)c4ccccc43)C(c3ccc(OC)cc3)C2)cc1 (centres undefined) | 62%[activator] | 7% | -22% | -3.6% | 9% | -5% | ? | 0%
CN(CC12CC3CC(CC(C3)C1)C2)C(=O)c1ccco1 | -11% | / | / | / | / | 20% | ? | -22%[46.1 µM]
COCCN(CCOC)S(=O)(=O)c1ccc(C(=O)Nc2nc3c(s2)CCc2ccccc2-3)cc1 | -7% | -2% | 1% | 1.2% | 8% | 0% | ? | ?
Cc1ccc(NC(=O)NC(=O)c2cnccc2C(F)(F)F)c(C)c1 | -2% | / | 0% | / | 3% | -20% | ? | -2%
